Bioassay records (PubChem BioAssay)
H5N1 CPE: antiviral screen in MDCK cells, H5N1 avian flu; cytopathic effect, luminescence, 72 h; hits give high values; no value below 0 was filed and about half of the inactive calls have no number; reference of the scale not given here; inhibition, % at 50 µM; hit rate 0.07% among 96,000; AID 740; in the data active means inhibition above about 25%
* = called active by the depositor; i = inactive.

Structure	H5N1 CPE
COc1ccc(Cl)cc1C(=O)Nn1cnc2ccccc2c1=O	i
Cc1ccc2[nH]cc(C(=O)CN3CCN(c4ccccn4)CC3)c2c1	i
COc1ccc(C2C(C#N)=C(C)NC3=C2C(=O)c2ccccc23)cc1 (stereo unspecified)	0.2
COc1ccc2nc(Sc3c([N+](=O)[O-])nc(C)n3Cc3ccccc3)[nH]c2c1	17
COc1ccc(Nc2nc(C)cc(C)c2C#N)cc1OC	i
Cc1ccc(Nc2nc(-c3c(C)n(C)n(-c4ccccc4)c3=O)c(C)s2)cc1	i
CCOC(=O)/C(C#N)=C1/CCCCCN1C	i
CCOC(=O)Oc1ccc2oc(C)c(C(=O)OCCOC)c2c1	1.2
COc1ccc(NC(=O)C2=C(C)C(=O)OC23CCC(C)CC3)c(OC)c1 (stereo unspecified)	i
COc1cc2[nH]c(=O)n(CCCCCC(=O)N3CCN(c4ccccc4)CC3)c(=O)c2cc1OC	0.1
Cc1cc2n(n1)C(c1ccc(O)cc1)Nc1ccccc1-2 (stereo unspecified)	i
CCN1/C(=C\C=C\C2=[N+](CC)c3ccccc3C2(C)C)C(C)(C)c2ccccc21	i
COc1ccc(CCNC(=O)CCC(=O)N2CCN(S(=O)(=O)c3ccc(Cl)cc3)CC2)cc1OC	i
Cc1ccc(CN(c2ccc(C(=O)Nc3ccc4c(c3)OCO4)cc2)S(C)(=O)=O)cc1	i
CC12CC(c3ccccc3O1)C(C(=O)N1CCOCC1)C(=O)N2 (stereo unspecified)	1.6
O=P(O)(CN1CCCCCC1)CN1CCCCCC1	0.4
O=C1c2ccccc2C(=O)N1C/C=C/CN1C(=O)c2ccccc2C1=O	0.3
O=C(NC(Cc1ccccc1)C(=O)N1CCC2(CC1)OCCO2)C1CCCCC1 (stereo unspecified)	i
CC(C)c1ccc(NC(=O)N2CCC(c3nc4ccccc4o3)CC2)cc1	i
COC(=O)[C@@H](NC(=O)Nc1ccc(C(C)=O)cc1)C(C)C	i
Cc1ccccc1Cn1c(=O)n(Cc2ccco2)c(=O)c2ccccc21	i
COCCNC(=O)CN(C(=O)CCC(=O)Nc1ccccn1)c1ccc(F)c(Cl)c1	0.3
COc1cccc(CNC(=O)C2CCN(S(=O)(=O)c3cnc[nH]3)CC2)c1	0.3
CSc1ncccc1C(=O)NCc1ccc(C)cc1	0.1
CCc1cc(=O)oc2cc(OCC(=O)O)c(Cl)cc12	0.5
O=C(CSc1nnc(-c2cccs2)n1-c1ccccc1)N1CCN(C(=O)c2ccco2)CC1	1.5
c1ccc(CN2CCC3(CC2)Nc2ccccc2CO3)cc1	i
COc1ccc(N2CCN(C(=O)CSc3nnc(-c4ccc5[nH]c(C)c(C)c5c4)o3)CC2)cc1	0.1
CC1=CC(C)(C)N=C(Nc2ccc(C)cc2)S1	0.5
COc1cccc(C2=NOC(C(=O)Nc3ccccc3SC)C2)c1 (stereo unspecified)	i

The last 3 compounds of the part before open the next one:
Structure	H5N1 CPE
COc1ccc(N2CCN(C(=O)CSc3nnc(-c4ccc5[nH]c(C)c(C)c5c4)o3)CC2)cc1	0.1
CC1=CC(C)(C)N=C(Nc2ccc(C)cc2)S1	0.5
COc1cccc(C2=NOC(C(=O)Nc3ccccc3SC)C2)c1 (stereo unspecified)	i
COC(=O)c1ccc(CNC(=O)CNc2cc(C(F)(F)F)ccc2N2CCOCC2)cc1	0.5
CC(C)Oc1ccc(C2CNC(=O)C2)cc1 (stereo unspecified)	0.1
CCn1nccc1C(=O)Nc1nc2ccccc2n1CCN1CCCCC1	0.8
CC(=O)c1cccc(NC(=O)C2CCN(S(C)(=O)=O)CC2)c1	i
O=C(Nc1cccc(Cl)c1)N1CCN(c2ncccn2)CC1	0.6
CCC(=O)c1cc(F)c(N2CCN(CC)CC2)cc1C	1.9
CCCCc1ccc(-c2csc(/C(C#N)=C/c3ccc(C)o3)n2)cc1	i
COc1ccc2[nH]c3c(=O)n(Cc4ccco4)cnc3c2c1	i
COc1cccc(C(=O)CSc2nnc(-c3cc(OC)c(OC)c(OC)c3)o2)c1	1.1
O=S(=O)(c1ccccc1)N1CCn2c(nc3ccccc32)C1	1.0
COc1ccc(C2C3=C(CCCC3=O)Nc3c(-c4ccccc4)c(C)nn32)cc1 (stereo unspecified)	i
Nc1nc(-c2ccccc2)cc(C(F)(F)F)n1	i
O=C(CSc1nnc2scc(-c3ccccc3)n12)Nc1ccc2c(c1)OCCO2	i
Cc1nnc2n(Cc3ccccc3)c(=O)c3c4c(sc3n12)COC(C)(C)C4	2.0
Cc1ccc2[nH]c(=O)c(CN(CCCN(C)C)C(=O)Nc3ccc(Cl)cc3)cc2c1	i
CCCCC(=O)Nc1ccc(Br)cn1	i
CCOC(=O)c1ccc(NC(=O)CSc2nnc(COc3ccccc3)n2C)cc1	i
CCOC(=O)CSc1nc2cc3c(cc2cc1C#N)OCO3	i
Clc1ccccc1OCCn1cnc2ccccc21	1.4
Cc1ccc(N2C(=O)CS/C2=C(\C(Cl)=C(Cl)Cl)[N+](=O)[O-])cc1	i

The closing 7 records of the section above come first, to join the parts.
Structure	H5N1 CPE
Cc1nnc2n(Cc3ccccc3)c(=O)c3c4c(sc3n12)COC(C)(C)C4	2.0
Cc1ccc2[nH]c(=O)c(CN(CCCN(C)C)C(=O)Nc3ccc(Cl)cc3)cc2c1	i
CCCCC(=O)Nc1ccc(Br)cn1	i
CCOC(=O)c1ccc(NC(=O)CSc2nnc(COc3ccccc3)n2C)cc1	i
CCOC(=O)CSc1nc2cc3c(cc2cc1C#N)OCO3	i
Clc1ccccc1OCCn1cnc2ccccc21	1.4
Cc1ccc(N2C(=O)CS/C2=C(\C(Cl)=C(Cl)Cl)[N+](=O)[O-])cc1	i
CCOC(=O)C1C(=O)Nc2nc3ccccc3n2C1C(C)C (stereo unspecified)	0.7
CCCCn1c(O)c(C(CC)=NCc2ccco2)c(=O)[nH]c1=O	2.0
O=C(COC(=O)Cn1[nH]c(=O)c2ccccc2c1=O)Nc1ccc2c(c1)OCO2	0.6
Cc1cccc(NS(=O)(=O)c2ccc(Br)s2)n1	1.0
Cc1ccc(Cc2cnc(NC(=O)/C(C#N)=C/c3ccc(-c4ccc([N+](=O)[O-])cc4)o3)s2)cc1	i
CC(C)C(NC(=S)NCc1ccccc1)C(=O)O (stereo unspecified)	0.9
O=C(N/N=C/C1CC=CCC1)c1ccccc1O (stereo unspecified)	i
CN1CCCC(OC(=O)COc2ccc(Br)cc2)C1 (stereo unspecified)	0.1
CCOC(=O)C1C(=O)NC(N2CCN(Cc3ccccc3)CC2)=NC1c1ccco1 (stereo unspecified)	0.5
O=C(CCC(=O)OCCCC(F)(F)C(F)(F)F)NC1CCCCC1	i
O=C(Nc1nc2ccc(S(=O)(=O)N3CCCC3)cc2s1)c1cccs1	i
CCN(c1ccccc1)S(=O)(=O)c1ccc2[nH]cc(C(=O)N3CCOCC3)c(=O)c2c1	i
CSc1ccc(Cl)c(C(=O)OCC(=O)NCC(C)C)c1	0.5
Cn1c2c(c(=O)n(C)c1=O)C1(C(=O)Nc3ccccc31)C(C#N)=C(N)O2 (stereo unspecified)	2.3
O=C(Nn1cnnc1)c1cc(-c2ccccn2)nc2ccccc12	i
O=C(CSc1nncn1-c1ccccc1)Nc1cc(Cl)cc(Cl)c1	i
O=C(O/N=C/c1ccc2c(c1)OCO2)c1ccccc1Cl	i
O=C(N/N=C/C(Br)=C/c1ccccc1)c1n[nH]c2c1CCC2	0.3
O=C(Cc1n[nH]c(=O)[nH]c1=O)N/N=C/c1ccccc1O	0.3
Cn1c(=O)cc(SCC(=O)N2CCCC2)c2ccccc21	1.0
COc1cccc(CN2C(=O)N(C(C)C)C(N(O)C(=O)NC(C)C)C2(C)C)c1OC (stereo unspecified)	i
Cc1ccc(S(=O)(=O)N(C(=O)c2ccncc2)c2ccc(OC(=O)c3ccncc3)c3ccccc23)c(C)c1	i
CCn1c(SCC(=O)Nc2oc(-c3ccccc3)c(-c3ccccc3)c2C#N)nnc1-c1ccncc1	i
CCN(Cc1ccccc1)C(c1ccc(C)cc1)c1nnnn1C(C)(C)C (stereo unspecified)	1.0
Cc1cc(NCCCCO)n2c(nc3ccccc32)c1C#N	1.0
Cc1nc(CC(=O)c2c(C)cc(O)cc2O)cs1	3.4
O=S(=O)(c1cccc(-c2nnc(SC(F)F)n2-c2ccccc2)c1)N1CCCCC1	1.4
CC1N=C2c3ccccc3N=C(SCc3cc(=O)n4cc(Cl)ccc4n3)N2C1=O (stereo unspecified)	2.1
Cc1occc1C(=O)NCCCCNC(=O)c1ccoc1C	i
Cc1ncc([N+](=O)[O-])n1CC(=O)NC1CCCC1	1.3
O=C(Nc1nccs1)c1sc2ccccc2c1Cl	i
O=C(O)CCS(=O)(=O)Cc1cccc(Cl)c1	i
Cn1c(Cn2nnc3ccccc32)nnc1SCC(=O)Nc1ccc2c(c1)OCO2	0.2
ON1C(c2ccc(Cl)cc2Cl)N(O)[C@H]2CCCC[C@H]21 (stereo partly specified)	i
Cc1onc(-c2ccccc2Cl)c1C(=O)N1CCN(c2cccc(Cl)c2)CC1	i
COc1ccc(F)cc1S(=O)(=O)N1CCN(Cc2ccc3c(c2)OCO3)CC1	1.3
CN1C(C)(C)CC(=NOC(=O)c2ccccc2)CC1(C)C	i
Cc1sc2c(c1C)CN(Cc1ccncc1)CN2C(=O)c1ccco1	2.4
COc1ccc2[nH]c(=O)c(CN(C(=O)C3CCCO3)c3ccc(C)cc3)cc2c1 (stereo unspecified)	0.5
Cc1ccc(C(=O)OCC(=O)Nc2ccc(N(C)C)cc2)cc1NC(=O)c1ccco1	i
CC(=O)N(C)c1nc(-c2ccc(Cl)cc2)cs1	1.1
COc1ccc(S(=O)(=O)N2CCC(C(=O)N3CCN(c4ccccc4OC)CC3)CC2)cc1	0.3
Fc1ccc(-c2nnc3sc(C4COc5ccccc5O4)nn23)cc1 (stereo unspecified)	1.9
O=P(NS(=O)(=O)c1ccc(Br)cc1)(Oc1ccccc1)Oc1ccccc1	0.7
Cc1cc(-c2nc3ncccc3o2)ccc1N	0.5
O=C(Nc1ccc2c(c1)C(=O)N(CC1CCCO1)C2=O)c1ccccc1Br (stereo unspecified)	0.4
COc1ccc(/C=C/C(=O)NCC(=O)N/N=C/c2cc(Br)ccc2OCc2ccccc2)cc1	i
COC(=O)C(C)Oc1cc(C)cc2oc(=O)c3c(c12)CCCC3 (stereo unspecified)	0.6
COc1ccc(NC(=O)c2onc(C)c2Cl)cc1OC	0.3
Cc1cccc(NC(=O)C2CCCN2C(=O)OCC(C)C)c1C (stereo unspecified)	0.1

Later entries
Structure	H5N1 CPE
COc1ccc2c(c1)cc(C(=O)O)n2C	i
O=C(CN1CCN(c2ccc(F)cc2)CC1)OCc1ccccc1	i
CCn1cnc2sc(C(=O)O)c(C)c2c1=O	1.6
COc1cc(C)nc(N2CCCC(C(=O)Nc3cccc(Cl)c3Cl)C2)n1 (stereo unspecified)	i
O=C(Nc1ccccc1)N(CCc1nc2ccccc2[nH]1)C1CCCC1	1.4
CC(C)CCSc1nc(N)c(C#N)cc1C#N	0.3
COc1ccccc1C(=O)NCCn1cc(SCC(=O)NCc2ccco2)c2ccccc21	0.1
COCCCn1cnc2c(c1=O)c1nc3ccccc3nc1n2CCc1ccccc1	i
COc1nc(C#N)nc(N(C)C)n1	4.8
Cc1onc(-c2ccccc2Cl)c1C(=O)Nc1ccccc1N1CCOCC1	i
CSc1ccccc1NC(=O)c1ccc(C)o1	1.6
CCN(CC)CC(C(=O)N(CC)CC)P(=O)(c1ccccc1)c1ccccc1 (stereo unspecified)	3.0
O=S(=O)(c1ccc(Br)cc1)n1ccc2ccccc21	0.6
Cc1ccc(-n2nc3c(c2NC(=O)c2cccs2)CSC3)cc1	0.4
CC(C)(Oc1cccc2ccccc12)C(=O)O	i
O=S(=O)(c1ccccc1)c1cnn2c(C(F)(F)F)cc(-c3ccc(F)cc3)nc12	i
N#Cc1c(N)n(CCNC(=O)c2cccs2)c2nc3ccccc3nc12	i
Cc1ccc(S(=O)(=O)N(C)c2ccc(OCC(=O)OCc3c(C)noc3C)cc2)cc1	1.4
CC(C)(C)OC(=O)N[C@@H](Cc1c[nH]c2ccccc12)c1nnc(SCC(N)=O)o1	i
O=C(CN(C1CCCCC1)S(=O)(=O)c1ccccc1)N1CCCC1	0.5
CCCn1c(SCC(=O)NC)nnc1C(C)C	i
CCOc1nc(-c2ccccc2O)nc2ccccc12	i
Cc1cccc(Nc2nc(N)nc(CN3CCN(C)CC3)n2)c1	0.0
CCOc1cc2[nH]c(=O)n(CCC(=O)NCCc3ccccc3)c(=O)c2cc1OCC	i
COC(=O)C1Sc2[nH]c(=O)sc2C2c3ccccc3OC(=O)C12 (stereo unspecified)	0.2
O=c1c(-c2cccc3ccccc23)[n+]([O-])c2ccccc2n1O	i
CCN1CCN(C(=O)c2nn(-c3ccccc3)c(=O)c3ccccc23)CC1	0.3
O=C(COC(=O)c1ccccc1Oc1ccccc1)NC1CCS(=O)(=O)C1 (stereo unspecified)	0.3
COc1ccccc1-c1nc(S(=O)(=O)c2ccc(Cl)cc2)c(N(C)C)o1	0.5
Cc1cc(C)cc(N(C(=O)C2CCCC2)C2C=CS(=O)(=O)C2)c1 (stereo unspecified)	0.6
Cn1c(SCc2cccc3ccccc23)nnc1-c1ccco1	0.1
CCOC(=O)Cn1c(=O)oc2cc(S(=O)(=O)N3CCN(c4ccccn4)CC3)ccc21	i
CSc1nnc(-c2ccc(O)cc2)n1C	1.8
Cc1ccc(CNC(=O)c2c(C)cc(=O)oc2C)cc1	0.6

The list is partial, so the mix of outcomes need not match the whole.
